Assay outcomes from PubChem BioAssay.
VDR inhibitor – Inhibitors of the vitamin D receptor (VDR): qHTS; AID 504847, 2011; 400,000 tested, 0.93% active; Potency, µM, inactives show max response, negative = inhibition, most hits filed as inhibitors; VDR-SRC2-3 peptide fluorescence polarization, 2 h; Vitamin D3 receptor (Homo sapiens), P11473; active = well fitted inhibition curve with a large enough effect; inconclusive = small, poorly fitted or top-dose-only effect, or another doubt; inactive = no such curve, though single readings can be large or run the other way; also: series mostly up to about 120 µM
Target sequence (P11473 whole entry, looked up): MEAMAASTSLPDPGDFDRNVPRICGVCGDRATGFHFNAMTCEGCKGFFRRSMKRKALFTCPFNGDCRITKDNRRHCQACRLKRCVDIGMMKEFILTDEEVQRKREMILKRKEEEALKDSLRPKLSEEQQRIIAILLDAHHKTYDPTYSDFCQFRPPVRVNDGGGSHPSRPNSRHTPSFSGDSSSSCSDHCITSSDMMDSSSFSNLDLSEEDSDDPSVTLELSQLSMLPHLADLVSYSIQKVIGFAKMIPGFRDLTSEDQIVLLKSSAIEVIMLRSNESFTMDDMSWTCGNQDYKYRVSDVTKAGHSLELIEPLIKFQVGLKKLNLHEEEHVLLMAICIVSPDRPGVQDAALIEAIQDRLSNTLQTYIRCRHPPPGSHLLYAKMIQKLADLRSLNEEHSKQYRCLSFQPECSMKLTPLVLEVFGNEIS
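Fluorescence polarization assay measuring small-molecule disruption of VDR binding to the coregulator peptide SRC2-3. Compounds were pin-transferred (23 nl) into the reagent mix and incubated 2 h at room temperature before reading.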
An asterisk follows results filed as active; ? = inconclusive; & = joins results of further samples. % is scaled to controls: 0 for no effect and ±100 for the full control effect; potency is read from the fitted curve at half-maximal effect. These rows are one share of the data; the hit share may differ from the screen's.

SMILES	VDR inhibitor
Cn1c(O)c(/C=C/C=Nc2ccccc2)c(=O)n(C)c1=O	-19.1%
C=C(C)[C@@H]1C2C(=O)O[C@H]1[C@H]1OC(=O)[C@@]34OC3C[C@]2(O)[C@@]14C (stereo not given in full)	-15.8%
N#Cc1ccc(CN2CCCC3(CCN(C(=O)Oc4ccccc4)CC3)C2)cc1	-4.0%
Cc1ccc2c(c1)C1CN(C)CCC1N2C(=O)/C=C/c1ccc2c(c1)OCO2 (stereo not given)	-11.7%
CC(C)CN1CCN(Cc2ccc(C(F)(F)F)cc2)CC1CCO (stereo not given)	12.2%
C=CCc1cc(OC)c2c(c1)OCO2	0.7%
CC1(C)CC(=O)C(C2(O)C(=O)NC(=O)NC2=O)=C(O)C1	44.7µM*
CCOC(=O)C1(c2ccccc2)CCN(CC(=O)c2ccc(NC(C)=O)cc2)CC1	-16.0%
CN1C(=O)N(C)C(=O)C2(Cc3c(nc4ccccn4c3=O)N3CCc4ccccc4C32)C1=O (stereo not given)	-9.9%
C[N+]1(C)CCN(c2ccccc2)CC1	5.9%&2.2%&-0.5%
c1cc2c(cc1CCNC1CCCCCC1)OCO2	-4.8%
Cc1ccc(-c2nn3c(=O)cc(CN4CCN(C(=O)COc5ccc(C)c(C)c5)CC4)nc3s2)cc1	11.4%
O=S(=O)(NC1CCCCC1)OCC(Cl)(Cl)Cl	-5.5%
CC(=NCc1ccco1)c1c(O)n(-c2ccc(C)cc2)c(=O)[nH]c1=O	-4.1%
CSc1nnc(C2CCNCC2)n1C	2.2%

Quoted from the listing:
VDR inhibitor result of `O=S(=O)(NC1CCCCC1)OCC(Cl)(Cl)Cl` → -5.5%
VDR inhibitor result of `C[N+]1(C)CCN(c2ccccc2)CC1` → 5.9%&2.2%&-0.5%
VDR inhibitor result of `CSc1nnc(C2CCNCC2)n1C` → 2.2%
VDR inhibitor result of `CC(=NCc1ccco1)c1c(O)n(-c2ccc(C)cc2)c(=O)[nH]c1=O` → -4.1%
VDR inhibitor result of `CCOC(=O)C1(c2ccccc2)CCN(CC(=O)c2ccc(NC(C)=O)cc2)CC1` → -16.0%
VDR inhibitor result of `N#Cc1ccc(CN2CCCC3(CCN(C(=O)Oc4ccccc4)CC3)C2)cc1` → -4.0%

Filtered by structure, the compounds so far containing a halogen (two)
SMILES	VDR inhibitor
CC(C)CN1CCN(Cc2ccc(C(F)(F)F)cc2)CC1CCO (stereo not given)	12.2%
O=S(=O)(NC1CCCCC1)OCC(Cl)(Cl)Cl	-5.5%

More results.
SMILES	VDR inhibitor
C=CCn1c(O)c(C(CC)=NCC2CCCO2)c(=O)[nH]c1=O (stereo not given)	-3.1%
CCS(=O)(=O)Nc1ccc(C2=NN(C(=O)c3ccco3)C(c3ccc(Cl)o3)C2)cc1 (stereo not given)	?
CCc1cc(=O)[nH]c(SCCCF)n1	10.6%
CN(C)CC1CSCCC1(O)c1ccccc1 (stereo not given)	10.7%
CN1C(=O)C(=Cc2ccc(OCC(=O)Nc3ccccc3)cc2)C(=O)N(C)C1=O	?
C[C@H](CCC(=O)O)C[C@H](C)C[C@H](C)C(=O)/C=C(\O)[C@H](C)C[C@H](C)C/C=C/[C@@H](C)[C@@H](O)[C@@H](C)[C@@H](O)C[C@@H]1CC[C@@](C)([C@H]2CC[C@@](C)([C@@H](C)O)O2)O1	?
COc1ccc(N=C2SCCCN2C)cc1	-0.8%
F/C(COc1ccc2c(c1)[nH]c1ccccc12)=C1/CN2CCC1CC2	17.2%&-8.5%
CC(=O)Nc1ccc(CC(=O)N2CCN(Cc3ccccc3)CC2)cc1	2.3%
CCN(CC)CCCN=Cc1c(O)n(Cc2ccc(F)cc2)c(=O)[nH]c1=O	-15.0%
COc1cc(OC)c(/C=C2\C(=O)Nc3ccccc32)c(OC)c1	-9.6%
COc1cc2c3cc1Oc1cc(ccc1O)C[C@@H]1c4c(cc(OC)c(O)c4Oc4ccc(cc4)C[C@H]3N(C)CC2)CCN1C	-12.7%
CCOC(=O)C1CCN(C=C2C(=O)N(C)C(=S)N(C)C2=O)CC1	-7.9%
COC(=O)C1C2c3ccccc3OC1(C)N=c1s/c(=C/c3cnn(C)c3)c(=O)n12 (stereo not given)	-1.4%
CN1CCC23c4c5ccc(O)c4O[C@@H]2[C@H](O)C=CC3C1C5 (stereo not given in full)	-8.8%
C[C@H]1CC[C@@H]2[C@@H](C)C(=O)O[C@H]3O[C@@]4(C)CC[C@H]1[C@@]32OO4	0.1%
CN(C(=O)Cc1ccc(Cl)c(Cl)c1)[C@H](CN1CCCC1)c1cccc(N=C=S)c1	-3.5%
COc1cc(C(O)CN)ccc1O (stereo not given)	-1.1%&-2.5%
COc1ccccc1CC1/C(=N/O)C2CCN1CC2 (stereo not given)	0.0%
c1cncc(C2=NCCC2)c1	-14.1%
COC(=O)c1cn(C(=O)c2cccc3ccccc23)c2ccccc12	1.4%
Cc1ccc2nc3c(cc2c1)CC1(C(=O)N(C)C(=O)N(C)C1=O)C1CCCCN31 (stereo not given)	5.3%
Cc1cccc(NP(=O)(Oc2ccccc2F)Oc2ccccc2F)c1C	3.0%
O=C(Cc1c[nH]c2ccccc12)NNCc1ccc(N(CCCl)CCCl)cc1	25.0%
COC(=O)C1=C(c2cccc(OCc3ccccc3)c2)C[C@@H]2CC[C@H]1N2C(=O)NCCCc1ccccc1	-17.0%
COC(=O)C1=C(c2cccc(OC)c2OC)C[C@@H]2CC[C@H]1N2C(=O)N1CCOCC1	5.3%
COc1c(O)c2c(=O)cc(OC)c3c4c(OC)cc(=O)c5c(O)c(OC)c(C[C@@H](C)OC(=O)c6ccccc6)c(c(c1C[C@@H](C)OC(=O)Oc1ccc(O)cc1)c23)c54	50.1µM*
O=C(c1ccc(CNS(=O)(=O)c2ccc(Br)cc2)cc1)N1CCC2(CC1)OCCO2	-11.4%
O=C1Nc2cc(Cl)c(Cl)cc2N2CCNC[C@H]12	25.1µM*
CN1C(=O)N(C)C(=O)C2(Cc3cc(NC(=O)c4ccccc4)ccc3N3CCCC32)C1=O (stereo not given)	13.7%
O=[N+]([O-])c1ccc(C(=Nc2ccccc2)N2CC2)cc1	-7.7%
Clc1ccc(-c2nc3ccc(Cl)cn3c2CN2CCCCC2)cc1	1.7%
CC1=CC2OC3CC4OC(=O)C=CC=CC(C(C)O)OCC(O)C5(C)OC5C(=O)OCC2(CC1O)C4(C)C31CO1 (stereo not given)	-7.9%
Clc1ccccc1CN1CCN(c2cccc3[nH]ccc23)CC1	?
C=CCn1c(O)c(/C=N/N2CCCCC2c2cccnc2)c(=O)[nH]c1=S (stereo not given)	-15.1%
Cc1ccccc1NC1=NCCCS1	11.9%
COc1ccccc1CC1C(=O)C2CCN1CC2 (stereo not given)	-3.2%
O=C1NC(=O)N(c2cccc(Cl)c2)C(=O)/C1=C\c1ccc(Sc2nc3ccccc3[nH]2)o1	?
N[C@@H](Cn1ccc(=O)n(Cc2ccc(C(=O)O)cc2)c1=O)C(=O)O	2.9%
O=C(O)C(Cl)(Cl)Cl	-5.3%&-0.5%
OCC(Br)CBr (stereo not given)	-10.2%
COC(=O)C1=C(c2ccc(F)cc2F)C[C@@H]2CC[C@H]1N2C(=O)N1CCC(O)(c2ccc(Cl)cc2)CC1	1.4%
COc1cccc(C(=O)C2CCCN(Cc3cccc4c3OCO4)C2)c1 (stereo not given)	-2.6%
C=C1C(C)C2C(Cc3ccccc3)NC(=O)C23OC(=O)/C=C/C(O)CCCC(C)C/C=C/C3C1O (stereo not given)	-7.9%
c1ccc(CN2CCCC3(CCNCC3)C2)cc1	?
Cc1nc2ccccc2c(=O)n1-c1ccc([N+](=O)[O-])cc1	-8.3%
CC1(O)CCC2C3CCC4=CC(=O)CCC4(C)C34OC4CC21C (stereo not given)	-3.0%
CN1CC[C@@H]2CN3CCc4cccc(c43)[C@@H]2C1	1.9%
CCCOC(=O)Nc1ccc([As](=O)(O)O)cc1NC(=O)OCCC	1.3%
N#CCCn1cc(C(=O)Nc2ccc(F)cc2)c(-c2ccccc2)n1	-9.4%
O=C(COC(=O)Cc1ccccc1)NC12CC3CC(CC(C3)C1)C2	7.9%
O=C(O)CCn1cc(C=C2C(=O)NC(=S)NC2=O)c(-c2cccc(Br)c2)n1	25.1µM*
CC1(C(=O)O)CCCC2(C)c3cc(O)ccc3CCC12 (stereo not given)	6.1%
Cc1ccccc1-n1c(C)nc2ccccc2c1=O	0.3%
CCCCCCCCCCCCCCCC[N+](C)(C)C	-7.6%&59.5%&81.8%
CN(C)C1CSSSC1	6.6%
O=C(NN=Cc1ccc(N(CCCl)CCCl)cc1)C(=O)c1c[nH]c2ccccc12	15.2%
Cn1cc[n+](C)c1P(=S)(c1ccccc1)c1ccccc1	3.1%
CSc1ccc(CN2CCN(C(=O)Cc3ccccc3)CC2)cc1	-8.5%
FC(F)(F)c1ccccc1NC1=NCCCS1	-12.7%

Looked up one by one from the list above:
SMILES	VDR inhibitor
C=CCn1c(O)c(C(CC)=NCC2CCCO2)c(=O)[nH]c1=O (stereo not given)	-3.1%
COC(=O)C1=C(c2cccc(OC)c2OC)C[C@@H]2CC[C@H]1N2C(=O)N1CCOCC1	5.3%
C=CCn1c(O)c(/C=N/N2CCCCC2c2cccnc2)c(=O)[nH]c1=S (stereo not given)	-15.1%
C[C@H](CCC(=O)O)C[C@H](C)C[C@H](C)C(=O)/C=C(\O)[C@H](C)C[C@H](C)C/C=C/[C@@H](C)[C@@H](O)[C@@H](C)[C@@H](O)C[C@@H]1CC[C@@](C)([C@H]2CC[C@@](C)([C@@H](C)O)O2)O1	?
CC(C)CN1CCN(Cc2ccc(C(F)(F)F)cc2)CC1CCO (stereo not given)	12.2%
CSc1ccc(CN2CCN(C(=O)Cc3ccccc3)CC2)cc1	-8.5%
COc1ccccc1CC1C(=O)C2CCN1CC2 (stereo not given)	-3.2%

(list continues)
SMILES	VDR inhibitor
Cn1c(=O)n(C)c2cc(CNCCc3ccc(F)cc3)ccc21	15.9%
CC(C)NC(=O)N1CCC2(CC1)CCN(C(=O)Oc1ccccc1)CC2	-6.3%
O=C(Nc1ccc(Br)cc1C(=O)O)c1ccc2c(c1)C(=O)N(Cc1ccccc1)C2=O	?
O=Cc1cn(Cc2ccc(F)cc2)c2ccccc12	-11.1%
COC(=O)C1=C(c2ccc(F)cc2F)C[C@@H]2CC[C@H]1N2C(=O)NC1CC1	-13.7%
CCCCCn1c(=O)c(C(=O)Nc2ccccc2)c(O)c2ccccc21	0.4%
C[C@@]1([C@@H](NP(=O)(c2ccccc2)c2ccccc2)c2ccccc2)C[C@H]1CCO	11.2%
Cc1cc(/C=C2\C(=O)NC(=O)N(c3cccc(F)c3)C2=O)c(C)n1-c1cc(C(=O)O)cc(C(=O)O)c1	8.6%
COc1ccc(NC(=O)c2sc3nc4c(cc3c2N)N2CCC4CC2)cc1OC	7.7%
COc1ccc(O)c(CN2CCCC(C(=O)c3ccccc3SC)C2)c1 (stereo not given)	-22.2%
COc1ccc(CCNCC2CCCO2)cc1 (stereo not given)	-16.7%
c1ccc(C2N3CCCN23)cc1 (stereo not given)	-5.7%
COc1ccccc1N1CCN(Cc2ccc3c(c2)OCO3)CC1	9.9%
COc1ccc(/C=C2/C(=O)N(Cc3ccco3)C(=O)N(C(C)C)C2=O)cc1	?
O=Cc1cn(Cc2c(F)cccc2Cl)c2ccccc12	16.8%
CC(C)=CCC12CN3CCN(CC(C3)C1=O)C2	6.2%
CCC1=CCN(CCc2c(C)[nH]c3ccccc23)CC1	3.6%
COc1cc2c(cc1OC)[C@@H]1C(=O)c3ccc4c(c3O[C@@H]1CO2)C[C@H](C(C)C)O4	6.2%
Cc1ncc([N+](=O)[O-])n1CCOc1nonc1N	-15.8%
COc1ccc(NC(=O)CN2CC=C(c3ccccc3)CC2)cc1S(=O)(=O)N1CCOCC1	-22.8%
COc1cccc(C(=O)C2CCCN(Cc3ccccn3)C2)c1 (stereo not given)	-4.5%
C[C@@H]1CC[C@H]2[C@@H](C)C(=O)O[C@@H]3OC4(C)CC[C@@H]1C32OO4 (stereo not given in full)	-0.7%
Cn1cc(C(O)CN2CCCCC2)c2ccccc21 (stereo not given)	?
CCCCn1c(O)c(C(C)=NCc2cccnc2)c(=O)[nH]c1=O	5.5%
CC(C)=CCCC(C)C1CC[C@@]2(C)C3=C(CC[C@@]12C)C1(C)CCC(O)C(C)(C)C1CC3 (stereo not given in full)	35.5µM*
Cn1c(O)c(C=NCCCN2CCCC2=O)c(=O)n(C)c1=O	-8.8%
CCOP(=O)(OCC)c1cccc(OP(=O)(c2cccc([N+](=O)[O-])c2)c2cccc([N+](=O)[O-])c2)c1	3.2%
